# High-throughput results as filed in PubChem.
# CtBP-E1A inh – CtBP/E1A binding inhibition | AlphaScreen GST-E1A/His-CtBP binding, 1536-well; stronger effect = lower value; control for the full effect not named in the record | activity change, % (concentration not given with the values) | 340,000 tested, 0.49% active | AID 651724; in the data active means activity change below about -65%; inconclusive means about -30% to -65%; inactive means above about -30%; note: % is set by controls: 0 for no effect and ±100 for the full control effect
#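 In 5 uL wells, 23 nL compound meets equimolar GST-E1A and His-CtBP (5X stock 125 nM each) for 2 h, 37 °C. Beads (5X, 50 ug/mL) then 1 h, 37 °C, dark.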
# D2 agonist – activates the human D2 dopamine receptor. AID 624465. activation, % (no concentration beside the values). 360,000 tested, 0.084% active. P14416. DiscoveRx PathHunter D2 beta-arrestin, luminescence, 90 min; 100% = 57 uM dopamine signal; in the data active = activation above about 40%; inconclusive = about 15% to 40%; inactive = below about 15%; note: compound concentration not given in the record; the text of the record calls up to 30% inactive
# Target sequence (P14416 whole entry, looked up): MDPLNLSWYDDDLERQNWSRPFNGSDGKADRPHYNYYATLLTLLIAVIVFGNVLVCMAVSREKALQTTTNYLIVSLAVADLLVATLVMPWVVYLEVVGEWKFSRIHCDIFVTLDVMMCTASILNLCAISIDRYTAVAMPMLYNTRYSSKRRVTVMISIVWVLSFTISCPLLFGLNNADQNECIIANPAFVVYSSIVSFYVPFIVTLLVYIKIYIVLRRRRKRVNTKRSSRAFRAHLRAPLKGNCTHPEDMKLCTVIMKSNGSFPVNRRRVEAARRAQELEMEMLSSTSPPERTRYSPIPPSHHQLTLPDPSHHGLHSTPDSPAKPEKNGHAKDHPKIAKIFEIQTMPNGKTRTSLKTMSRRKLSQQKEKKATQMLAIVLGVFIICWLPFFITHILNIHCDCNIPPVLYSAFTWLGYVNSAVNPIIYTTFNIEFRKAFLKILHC
#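 Agonist mode: compounds alone added to overnight-plated D2 PathHunter cells for 90 min at 37 C, with 57 uM final dopamine (EC100) defining full response. Beta-arrestin recruitment detected by chemiluminescent reagent, read after 1 h at ambient temperature.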
# TRPML1 inh – inhibitors of human TRPML1 channel; TRPML1-inducible cells, Ca2+ dye fluorescence, FDSS; stronger effect = lower value; inhibition of EC80 agonist-evoked calcium signal; AID 624415; activity change, negative = inhibition, % (no concentration beside the values); 390,000 tested, 0.02% active; in the data active means activity change below about -50%; inconclusive means about -30% to -50%; inactive means above about -30%;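 note: stimulus is agonist 54-4 at its EC80 concentration; % is set by controls: 0 for no effect and ±100 for the full control effect; compound concentration not given in the record; the text of the record puts the active cut at -80%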
# Target sequence (Q9GZU1 whole entry, looked up): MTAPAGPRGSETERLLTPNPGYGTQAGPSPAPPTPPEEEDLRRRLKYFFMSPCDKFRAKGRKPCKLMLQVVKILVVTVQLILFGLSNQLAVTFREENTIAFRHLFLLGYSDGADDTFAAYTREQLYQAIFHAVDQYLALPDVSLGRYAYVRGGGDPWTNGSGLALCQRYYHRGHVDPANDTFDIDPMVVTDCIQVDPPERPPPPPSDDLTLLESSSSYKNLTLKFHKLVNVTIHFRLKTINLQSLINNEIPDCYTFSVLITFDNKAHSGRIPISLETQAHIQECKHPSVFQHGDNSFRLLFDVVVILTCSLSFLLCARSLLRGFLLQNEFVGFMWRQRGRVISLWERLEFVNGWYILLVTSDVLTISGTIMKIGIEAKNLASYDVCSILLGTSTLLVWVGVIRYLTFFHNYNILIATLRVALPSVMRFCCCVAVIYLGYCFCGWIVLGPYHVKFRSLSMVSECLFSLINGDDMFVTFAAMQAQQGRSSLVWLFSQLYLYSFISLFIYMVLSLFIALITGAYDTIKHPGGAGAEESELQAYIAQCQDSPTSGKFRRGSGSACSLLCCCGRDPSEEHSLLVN
#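 Calcium fluorescence in TRPML1-DL cells induced overnight with Tet: a 110 s read after compound pin addition, then a 110 s antagonist read after challenge with 54-4 at 4 uM final (EC80).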
# Six1-Eya2 blk – blocks human Six1 binding to Eya2; Q15475+O00167; AlphaScreen GST-Six1/His-Eya2 binding, biochemical; stronger effect = lower value; control for the full effect not named in the record; activity change, % (test concentration not listed); 360,000 tested, 0.56% active; in the data active = activity change below about -65%; inconclusive = about -30% to -65%; inactive = above about -30%; note: % is set by controls: 0 for no effect and ±100 for the full control effect; compound concentration not given in the record
#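 AlphaScreen with GST-Six1 and His-Eya2 (5X mix: 250 nM and 500 nM), glutathione donor and nickel acceptor beads; buffer 50 mM Tris pH 8.0, 300 mM NaCl, 1 mM TCEP; 1 h at 37 C in the dark.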
# PINK1 expr mod – changes PINK1 expression; PINK1 immunofluorescence, high-content cytometry, 24 h; Potency, µM (doses to about 76.6 µM), for the others: at the highest dose activation (PINK1 increase), usual class: activators; 410,000 tested, 0.2% active; active = well fitted activation curve with a large enough effect; inconclusive = small, poorly fitted or top-dose-only effect; inactive = flat fitted curve, though single readings scatter; cell line not stated here;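 note: potency is the fitted concentration of half-maximal effect; % of control where 0% means no effect; nearly all actives have a fitted effect of over 65% in size; a mitochondrial uncoupler was the plate control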
#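 A stable cell line was treated with compounds at 5 concentrations for 24 hours, with CCCP as control. PINK1 levels and mitochondrial localization were measured by immunofluorescence with mitochondrial, cell and nuclear markers after fixation, read by laser-scanning cytometry.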
# TRPML1 ag – agonists of human TRPML1 channel | Q9GZU1 | TRPML1-expressing cells, Ca2+ dye fluorescence, FDSS; host cell line not named in the record; reference of the full effect not given here | activation, % (test concentration not listed) | 410,000 tested, 0.12% active | AID 624414; in the data active = activation above about 50%; inconclusive = about 30% to 50%; inactive = below about 30%; note: 0% is about no effect; the text of the record puts the active cut at 80%
#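 Calcium fluorescence on an FDSS kinetic reader gave the read-out. Tet-induced TRPML1-DL cells were plated overnight, dye-loaded (Ca8 with quencher, 45-90 min, room temperature, dark), then read 110 s after compound addition, and again 110 s after 4uM final 54-4 (EC80).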
# Numbers without * were called inactive; ? = inconclusive; nt = not tested or not shown; & = joins results of further samples; [ ] = remark or other dose.
molecule	CtBP-E1A inh	D2 agonist	TRPML1 inh	Six1-Eya2 blk	PINK1 expr mod	TRPML1 ag
COCCOC(=O)C1=C(C)N(Cc2ccccc2)C(=O)NC1c1cccc(OC)c1OC (centres undefined)	1	-3.6	20	-2	-2.1%	-0.4
O=Cc1cccn1-c1ccc(O)cc1	2	-4.8	30	-8	2.0%	-0.9
COc1cccc(NS(=O)(=O)CC23CCC(CC2=O)C3(C)C)c1 (centres undefined)	-3	-1.7	-3	6	1.0%	-0.6
Cc1cccc(Nc2nc(-c3ccncc3)cs2)c1	0	-10	27	-9	2.0%	1.0
Clc1cccc(Cc2c(-c3cccc(Br)c3)nc3ccc(Cl)cn23)c1	4	0.9	19	-1	7.6%	0.2
CCN(CC(=O)Nc1c(F)cccc1F)C(=O)c1cccnc1SC	6	2.9	35	1	5.3%	-0.5
CCOC(=O)c1cnn(C(=O)c2ccccc2)c1N	nt	-4.4	2	14	1.3%	1.0
O=C(Nc1ccc(F)cc1)C1CCCN(S(=O)(=O)c2ccc3[nH]c(=O)ccc3c2)C1 (centres undefined)	3	1.0	7	1	5.3%	4.0
O=C(N/N=C/c1cccnc1)c1ccccc1	10	2.8	nt	8	0.8%	nt
CC(=O)OC1C(=O)N(Cc2ccccc2)C1c1ccc(C)cc1 (centres undefined)	10	2.0	24	-8	-0.3%	2.7
CC(C)c1cnc2c(c1SCC(=O)NCc1ccccc1Cl)c(=O)n(C)c(=O)n2C	nt	nt	10	nt	0.7%	4.5
CCCN(CCC)CCCNC(=O)C1CCN(S(=O)(=O)c2cccc3nsnc23)CC1	3	-0.3	22&1	1	-0.9%&1.7%	0.0&-0.6
O=C(O)COc1ccccc1/C=N/NC(=O)CSc1nc2ccccc2n1Cc1ccc(Cl)cc1	nt	-4.1	13	-6	0.6%	0.1
CCN(CC(=O)Nc1ccc2c(c1)OCCO2)C(=O)CC(NC(C)=O)c1ccccc1 (centres undefined)	-22	-2.9	-7	6	-0.4%	0.2
CCn1c(SCC(=O)NCCc2ccc(Cl)cc2)nnc1-c1cccs1	1	-5.2	-10	-14	-1.3%	-0.5
COc1cc(OC)c(OC)cc1/C=N/NC(=O)CSc1ccccc1F	nt	3.1	-7	-10	2.6%	0.3
O=C(NCCCN1CCc2ccccc2C1)C1CCN(c2nnc(-n3cccc3)s2)CC1	-4	1.5	23	-7	-0.5%	0.4
O=C(COc1cccc2cccnc12)NNC(=O)Nc1ccccc1	3	-4.4	-7	0	1.7%	-0.5
O=C1CC[C@@H](CN(Cc2ccccn2)Cc2nc(Cc3ccccc3)no2)N1	-11	-3.2	6	2	-1.3%	0.4
CC(=O)c1cccc(NC(=O)CN2C(=O)NC(C)(C)C2=O)c1	4	-7.3	-3	3	-0.6%	1.8
COc1ccc(-n2ncc(C(=O)N3CCN(C(=O)c4ccco4)CC3)c2C2CCN(C(=O)OC(C)(C)C)CC2)cc1	nt	nt	-9	nt	0.4%	0.4
Cc1ccccc1CC1(CO)CCCN(Cc2ccccc2Cl)C1 (centres undefined)	8	-3.8	43	19	7.7%	1.1
CCOC(=O)c1c(NC(=O)CSc2nnnn2-c2ccccc2)sc2c1CC(C)(C)NC2(C)C	-2	-3.9	3	-9	-1.7%	-0.2
Cc1cc(CNC(=O)Cc2ccc(F)cc2)c2ccccc2n1	-4	-2.4	-26	6	3.1%	0.3
CC(C)OCCCNC(=O)c1cc(Sc2ccc(F)cc2)nc2ccccc12	0	-5.3	-3	11	4.1%	3.1

# Next part:
molecule	CtBP-E1A inh	D2 agonist	TRPML1 inh	Six1-Eya2 blk	PINK1 expr mod	TRPML1 ag
CCC(C)N1CCC(Oc2ccc(C(=O)NCc3ccccn3)cc2)CC1 (centres undefined)	-2	-6.5	24	3	-0.4%	0.5
COc1ccccc1N1CCN(S(=O)(=O)/C=C/c2ccccc2)CC1	-4	-1.9	2	-2	-1.6%	-1.3
Cn1c(=O)c2c(ncn2CC(=O)N2CCN(c3ccccc3)CC2)n(C)c1=O	5	-3.4	14	-1	1.0%	-1.1
NC(=O)c1ccc(N2CCCCC2)c(N2C(=O)C3C4C=CC(C4)C3C2=O)c1 (centres undefined)	1	-2.3	9	-1	2.1%	0.3
COc1ccc(CNC(=O)C2(CC3CC(c4ccccc4)=NO3)CCN(C(=O)OC(C)(C)C)CC2)cc1 (centres undefined)	1	-0.1	7	-7	0.8%	1.5
COCn1c(=O)c2c(nc(SC3=NCCS3)n2Cc2ccccc2C)n(COC)c1=O	0	3.8	20	1	1.4%[38.3 µM]	4.5
COC(=O)c1nn(-c2ccccc2)nc1-c1nn(-c2ccccc2)nc1C(=O)OC	-2	-4.4	-19	-9	8.4%	-0.1
CCN(C(=O)CSc1ncc(S(=O)(=O)c2ccc(C)c(Cl)c2)c(=O)[nH]1)c1cccc(C)c1	nt	nt	9	nt	1.7%	1.9
COc1cccc(N2C(=O)CC(N3CCC(C(N)=O)(N4CCCCC4)CC3)C2=O)c1 (centres undefined)	8	-0.5	3	1	1.4%[38.3 µM]	0.5
O=c1c2ccccc2oc2cc(-c3ccc4[nH]ccc4c3)ccc12	7	3.9	1	23	7.5%	0.1
COC(=O)c1cc(C)nc2c1c(=O)nc(SCc1ccccc1C)n2C1CC1	nt	nt	30	nt	0.9%	0.4
Cc1ccc(CN(Cc2ccco2)C(=O)COc2cc(C)c(Cl)c(C)c2)cc1	nt	nt	30	nt	6.6%	1.7
OCCN1CCN(Cc2cc(Br)cc(Br)c2O)CC1	27	-2.3	-12	17	5.3%[38.3 µM]	0.8
CCc1cc(CNC(=O)c2ccc3nc(Cc4ccc(OC)c(OC)c4)oc3c2)on1	-25	6.1	-15	0	0.3%	-0.9
CC(=O)c1ccccc1C(=O)N1CCCC(CNC(=O)c2ccc(F)cc2)C1 (centres undefined)	-4	-2.4	-7	-3	0.1%	-0.2
Cc1cc(C)n2nc[n+](C)c2n1	-2	-1.0	-10	12	1.7%	-0.4
S=C(Cc1ccc(-c2ccccc2)cc1)N1CCOCC1	nt	-5.6	9	-3	1.5%	-0.6
O=C(c1ccco1)N1CCN(c2ccc(F)cc2)CC1	2	-1.0	14	5	1.0%	4.7
CCCCCN1C(C)=CC(=C(C#N)C#N)C=C1C	5	5.0	-9	4	-0.8%	2.8
Cn1nnnc1NC(=O)c1ccccc1Cl	-3	-2.5	-1	-4	6.8%	0.8
Cc1cc(NC(=O)c2cc([N+](=O)[O-])cc([N+](=O)[O-])c2)n(-c2ccccc2)n1	0	6.8	18	-1	9.9%	1.8
CC(=O)c1cccc(NC(=O)c2nc(-c3ccccc3)n(-c3ccccc3)n2)c1	nt	nt	-8	nt	-0.2%	-0.8
CCn1c2ccccc2c2nnc(N3CCN(c4ccc(OC)cc4)CC3)nc21	nt	nt	-8	nt	4.7%	-0.5
COc1ccc(NC(=O)Cn2c(=O)cnc3ccccc32)cc1S(=O)(=O)N1CCCCC1	5	1.7	14	-5	2.7%	0.2
O=C(COc1ccc([N+](=O)[O-])cc1)N1CCc2ccccc2C1	11	0.3	3	15	0.1%	0.1

# (listing goes on)
molecule	CtBP-E1A inh	D2 agonist	TRPML1 inh	Six1-Eya2 blk	PINK1 expr mod	TRPML1 ag
Cc1ccc(OCCCCn2nnc3sc4c(c3c2=O)CCCC4)cc1	nt	nt	-8	nt	0.4%	3.1
CC(C)Nc1nc(NC(C)C)nc(Oc2ccc(=O)n(C)n2)n1	nt	2.3	0	18	3.1%	0.7
COCCNC(=O)C1CCCN(C(=O)c2ccc(OC)c(F)c2)CC1 (centres undefined)	0	-2.4	nt	0	0.7%	-0.1
COc1ccccc1C(=O)NC(=O)COC(=O)c1ccc(NC(=O)CC#N)cc1	-6	-1.0	22	-1	3.3%	0.1
O=C(NC1CCCC1)C1CCN(S(=O)(=O)c2ccccc2)CC1	7	-3.8	0	8	-0.6%	0.8
COc1ccc(OCc2cc(C(=O)NC(C)c3cnn(C)c3)no2)c(Cl)c1 (centres undefined)	4	1.1	-4	0	0.9%	-1.1
CCC(=O)c1ccc(OC(=O)N2CCOCC2)cc1	nt	-0.4	-11	0	0.5%	-1.0
O=C(Cn1nc(Cc2cccnc2)c2ccccc2c1=O)NCc1ccc(F)cc1	1	-5.6	-11	1	-1.1%	0.1
O=C(NN1C(=O)/C(=C/c2cccnc2)SC1=S)C(c1ccccc1)c1ccccc1	-5	2.8	-5	-5	4.9%[38.3 µM]	0.0
c1ccc(CSc2nnc(-c3ccco3)o2)cc1	-3	2.5	-13	6	-0.3%	1.1
CCOC(=O)C1(Cc2ccccc2C(F)(F)F)CCN(C2CCC2)CC1	-17	-5.0	3	-2	2.9%	-0.4
COc1ccc(S(=O)(=O)Nc2cc(SCC(=O)O)c(O)c3ccccc23)cc1	nt	?	1	?	6.6%	-0.4
CCCC(=Nc1ccc(N)cc1)C1=C(O)C(C(=O)OC)C(C)(C)CC1=O (centres undefined)	-23	6.2	4	-20	?	0.4
CC(=O)C1=C(C)N(Cc2ccccc2)C(=O)N[C@H]1c1cccs1	25	-5.6	-7	14	-1.1%	1.0
CC1O[C@@H](OC2C(COC3OC(CO)C(O)[C@H](O)C3O)OC(OC3CC[C@]4(C)C(CC[C@@]5(C)[C@@H]4CC=C4[C@@H]6CC(C)(C)CC[C@]6(CO)C(O)C[C@]45C)C3(C)C)C(O)C2O)C(O)C(O)C1O (some centres undefined)	7	-0.1	14	0	-1.1%	1.3
COc1ccc(NC(=O)CSCC(=O)Nc2nnc(C3CC3)s2)cc1	-10	-1.5	-16	3	-0.4%	-0.1
C=CCOc1ccc(/C=N/NC(=O)CN2CCCCC2)cc1OC	-2	-2.5	11	-13	0.8%	-0.6
Cc1ccc(Nc2cc(=O)n(C)c(=O)[nH]2)cc1C	4	-2.1	10	4	1.8%	-0.3
Cc1cc(C)c2c(c1)CC(C)(C)CC2=O	-12	0.5	6	8	9.2%	0.1
CN1CCN(C(=O)C2CCCN(S(=O)(=O)c3ccccc3)C2)CC1 (centres undefined)	15	5.3	-18	2	1.7%	0.2
O=C(CC1S/C(=N/N=C/c2c[nH]c3ccccc23)NC1=O)Nc1ccccc1 (centres undefined)	4	0.2	-3	0	12%	0.9
O=C(NCCN1CCOCC1)Nc1ccc(Cl)cc1Cl	-4	-1.7	12	3	-0.2%[38.3 µM]	4.4

# Four entries from above in a different format:
> C=CCOc1ccc(/C=N/NC(=O)CN2CCCCC2)cc1OC
  CtBP-E1A inh = -2
  D2 agonist = -2.5
  TRPML1 inh = 11
  Six1-Eya2 blk = -13
  PINK1 expr mod = 0.8%
  TRPML1 ag = -0.6

> Cc1ccc(Nc2cc(=O)n(C)c(=O)[nH]2)cc1C
  CtBP-E1A inh = 4
  D2 agonist = -2.1
  TRPML1 inh = 10
  Six1-Eya2 blk = 4
  PINK1 expr mod = 1.8%
  TRPML1 ag = -0.3

> Cc1cc(C)c2c(c1)CC(C)(C)CC2=O
  CtBP-E1A inh = -12
  D2 agonist = 0.5
  TRPML1 inh = 6
  Six1-Eya2 blk = 8
  PINK1 expr mod = 9.2%
  TRPML1 ag = 0.1

> CN1CCN(C(=O)C2CCCN(S(=O)(=O)c3ccccc3)C2)CC1 (centres undefined)
  CtBP-E1A inh = 15
  D2 agonist = 5.3
  TRPML1 inh = -18
  Six1-Eya2 blk = 2
  PINK1 expr mod = 1.7%
  TRPML1 ag = 0.2
